Assay outcomes (PubChem)
Sa growth 42C: blocks Staphylococcus aureus growth. 0.53% of 170,000 active. relative growth, % (test concentration not listed). S. aureus RN4220 growth, OD600, 20 h, 42 °C; hits give low values. AID 720641;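 active means growth at 42 °C up to 50% and 20 or more points under that at 30 °C, or under 10% at both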;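 further: 300 nL library stock went into each well; scaled to the means of positive and negative controls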
GIV Gai3 FP: GIV-Galpha-i interaction inhibition; P08753; Galpha-i3/FITC-GIV peptide fluorescence polarization, 90 min; hits give low values; scaled: aluminum fluoride 0%, vehicle 100%; percent of control (FP), % (no concentration beside the values); 0.42% of 210,000 active; AID 1224905;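 active means replicate mean at 85% of control or lower, very high polarization wells dropped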;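 further: wells of about 15 µL received 100 nL stock; the first replicate is given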
Target sequence (P08753 whole entry, looked up): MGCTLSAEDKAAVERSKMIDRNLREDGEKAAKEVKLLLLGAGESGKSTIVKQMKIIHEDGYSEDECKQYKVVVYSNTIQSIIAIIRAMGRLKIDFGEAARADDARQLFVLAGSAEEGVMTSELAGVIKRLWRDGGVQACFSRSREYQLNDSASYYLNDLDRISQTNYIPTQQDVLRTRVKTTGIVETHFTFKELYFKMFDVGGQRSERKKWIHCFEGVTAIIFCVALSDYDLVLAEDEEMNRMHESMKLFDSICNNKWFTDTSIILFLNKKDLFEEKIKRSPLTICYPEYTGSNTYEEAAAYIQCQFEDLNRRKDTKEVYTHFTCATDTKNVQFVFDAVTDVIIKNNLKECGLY
HCMV NEC inh: cytomegalovirus nuclear egress complex inhibition; HTRF UL50-UL53 interaction, normalized percent inhibition; inhibition, % (no concentration beside the values); 0.15% of 190,000 active; AID 1918969;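 active means both replicates at 50% or more, plus weaker picks with an unusually low signal ratio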;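 further: stock transfer was 100 nL into about 20 µL; 0% = negative control wells and 100% = wells with untagged competitor protein; inactives centre near -12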
Sa growth 42C second temp: recorded beside Sa growth 42C, whose call it bears; relative growth, %; measured here: growth at 30 °C;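 optical density after 20 h as mean of two plates; 100% = untreated growth and lower means inhibition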
An asterisk follows results filed as active; . = no result given; & = joins results of further samples.

Every second line gives: Sa growth 42C	HCMV NEC inh	GIV Gai3 FP	Sa growth 42C second temp
Cc1csc2nc(-c3cccc(NC(=O)c4ccc(S(N)(=O)=O)cc4)c3)cn12
  107	.	95	105
COc1cc(OC)c(NC(=O)Nc2c(C)nc3nc[nH]n3c2=O)cc1Cl
  .	-16	96	.
Cc1noc(C)c1C(=O)Nc1nnc(SCC(=O)O)s1
  104	8	.	91
COc1ccc(C(=O)n2nccc2-c2ccc(-c3cccs3)s2)cc1
  71	-14	101	62
Cc1noc(-c2c(C)sc(C)c2S(=O)(=O)N2CC=C(c3ccccc3)CC2)c1C
  .	-22	103	.
Cc1ccccc1NS(=O)(=O)c1ccc2[nH]cc(C(=O)NC3CCCCC3)c(=O)c2c1
  106	.	104	57
COc1ccc(OC)c(-c2noc(N3CCN(c4cc(Cl)ccc4C)CC3)n2)c1
  104	.	106	115
CCc1nc(-c2ccc(Cl)cc2)cs1
  108	-8	98	92
Cc1ccc(Cl)cc1N1CCN(C(=O)c2ccc(NC(=O)c3nsc4ccccc34)cc2)CC1
  105	.	111	109
Cc1c(NC2=C(C(=O)c3ccccc3)N(C)S(=O)(=O)c3ccccc32)c(=O)n(-c2ccccc2)n1C
  87	-28	103	88
CC(=O)N1CCCc2ccc(NC(=O)Cc3ccc(F)cc3)cc21
  87	-10	106	88
Cc1cc(C)c2c(c1C#N)CC(C)(C)C2=O
  109	-11	105	97
O=C(CCn1ccc2cc(S(=O)(=O)N3CCCCC3)ccc21)NCc1ccccn1
  .	-3	100	.
Cn1cccc1Cc1nnc(SCC(=O)N2CCc3ccccc32)n1Cc1ccccc1
  92	1	103	91
O=C(CC(c1cccs1)N1Cc2ccccc2C1=O)Nc1ccc(F)cc1F (stereo unspecified)
  90	.	98	67
CCOC(=O)c1c(C)[nH]c(CCC(=O)NCCCN2CCN(c3ccc(F)cc3)CC2)c1C
  90	.	102	85
CCc1c(C)nc2nc(NCc3ccc(C)cc3)[nH]n2c1=O
  .	-10	103	.
CCN(CC)C(=O)COc1ccc(OC)cc1
  113	-9	105	97
Cc1c(N2CCN(C(=O)CC3CCCC3)CC2)c(=O)n(C)c(=O)n1C
  .	-40	105	.
CC(=O)N1CC(C)Sc2cc(S(=O)(=O)NCc3ccco3)ccc21 (stereo unspecified)
  98	.	100	73
COc1cccc(-c2nc3c(c(C)nn3-c3ccccc3)c3cc(OC)c(OC)cc23)c1
  103	-35	111	92
COCCn1c(N)c(C(=O)NCc2ccccc2)c2nc3ccccc3nc21
  110	-17	.	98
Cc1nc2sccn2c1-c1nc(-c2ccc(Br)o2)c(C(=O)c2ccc3c(c2)OCCO3)s1
  72	-37	.	52
Cc1cc(NC(=O)CN(c2cccc(C)c2C)S(=O)(=O)c2ccccc2)ccc1Br
  96	-35	102	87
CCOc1ccc(NC(=O)Cn2c(=O)n(CC(=O)NC3CCCC3)c(=O)c3ccccc32)cc1
  94	2	106	94
COC(=O)c1sccc1NC(=S)NCCN1CCNC1=O
  96	-18	103	88
CCCOc1ccc(C2=NC(c3ccncc3)=Nc3ccc(C)cc3N2)cc1
  101	-17	101	87
c1ccc(OCCN2CCNCC2)cc1
  110	-4	106	84
COc1ccc(Sc2cc3c(cc2NS(=O)(=O)c2ccc(OC)cc2)n(C)c(=O)n3C)cc1
  .	-28	94	.
O=C(O)CCCC(=O)N1CCCC1
  107	-8	104	77
O=S(=O)(c1ccc(S(=O)(=O)N2CCC3(CC2)OCCO3)cc1)N1CCCC1
  104	-21	105	96
Cc1ccc(C(=O)CC(NCCN2CCOCC2)C(=O)O)cc1 (stereo unspecified)
  77	-4	.	86
CCOc1ccc(OCC)c(-n2cnnn2)c1
  74	0	95	89
FC(F)(F)c1cccc(-c2ccc(CNCC3CCCO3)o2)c1 (stereo unspecified)
  .	5	101	.
Oc1ccccc1C1=Nc2ccccc2N=C(c2ccco2)C1
  93	-25	97	106
COc1cc(Cn2c(N)c(C#N)c3nc4ccccc4nc32)cc(OC)c1OC
  113	-39	106	86
O=C(NCC12CC3CC(CC(C3)C1)C2)c1cc(-c2ccccc2O)no1
  105	-4	103	101
c1coc(CNc2nc[n+]3c4c2ncn4CC3)c1
  115&95	-9	97	87&91
CNS(=O)(=O)c1ccccc1Sc1cccc2cccc(C(=O)O)c12
  121	26	99	92
CSC(=O)CNC1(Cc2ccc(O)cc2)CCCCC1
  89	-27	102	83
CN1CCC(N(C)C(=O)c2cc(=O)c3ccccc3o2)CC1
  99	-18	.	96
Clc1cccc(N2CCN(c3ncnc4c3nc3n4CCCC3)CC2)c1
  99	6	110	93
Cc1cc2nc(CSc3ccccc3NC(=O)Nc3ccccc3Cl)cc(=O)n2o1
  .	-8	113	.
Cc1cccc(C(=O)NCCc2nc3ccccc3n2Cc2ccccc2Cl)c1
  89	-19	99	84
O=c1oc(-c2cccs2)nn1CN1CCN(Cc2cccs2)CC1
  99	-31	.	92
Cc1nnc(NCc2ccc(F)cc2)c2c1nnn2Cc1ccc(F)cc1
  114	-2	103	86
CCN(CC)C(=O)CSc1nc2cccnc2n1-c1ccccc1OC
  106	-17	101	94
CCOc1ccccc1NC(=O)Cn1c(=O)nc(-c2ccccc2F)c2cc(Cl)ccc21
  107	.	103	89
O=C(NCCO)N1c2ccccc2Sc2ccccc21
  106	.	103	83
CCn1c(CSc2nc3ccccc3s2)nnc1SCC(=O)C(C)(C)C
  91	0	.	100
CC1(C)CC(=O)C(C=Nc2ccccc2)=C(O)C1
  90	-20	107	89
O=C(NCc1ccccn1)c1ccc(CSc2nc3cccnc3n2Cc2ccccc2)cc1
  .	-26	104	.
Cc1nn2c(C(F)(F)F)cc(-c3cccnc3)nc2c1-c1ccc(Cl)cc1
  .	-20	103	.
Cc1ccc(-n2ncc(C(=O)NCCN3CCCCC3)c2C2CCN(C(=O)OC(C)(C)C)CC2)cc1
  117	-59	102	86
CSc1n[nH]c(NC(=O)c2cccs2)c1S(=O)(=O)c1ccc(Cl)cc1
  108	-3	104	88
COc1ccccc1Nc1nc(-c2ccc(F)cc2)c2c(n1)-c1ccccc1OC2
  102	-2	103	92
NC(=O)c1ccccn1
  109	-2	.	100
N#CCc1ccc(NC2(C#N)C3CC4CC(C3)CC2C4)cc1 (stereo unspecified)
  90	-8	99	90
CN=c1scc(C)n1/N=C/C1CCCCC1
  87	-13	.	76
CCOc1ccc(NC(=O)Cn2c(=O)n(CCCCC(=O)NCCc3ccc(Cl)cc3)c(=O)c3ccccc32)cc1
  88	2	106	93

(cont.)
Every second line gives: Sa growth 42C	HCMV NEC inh	GIV Gai3 FP	Sa growth 42C second temp
Cc1ccc(S(=O)(=O)NC(=O)N(C)C2CCCCC2)cc1
  124	34	104	107
Cc1ccc(-n2nc(C)c3c(C)c(CCC(=O)NCc4ccccc4Cl)c(C)nc32)cc1C
  93	-33	100	92
CCSc1nnc(Nc2ccccc2)s1
  108	-4	.	97
COc1ccc(/C=C2\SC(=N)N(c3ccc(F)cc3)C2=O)cc1OC
  .	-32	108	.
CC(C)C(C)(C#N)NC(=O)c1cccnc1Oc1ccc(Cl)cc1 (stereo unspecified)
  97	-4	.	82
Cc1ccc(C(=O)NC(C)C(c2cccs2)N2CCCC2)s1 (stereo unspecified)
  124	-11	.	93
CCN(CC)S(=O)(=O)c1ccc(C(=O)OCC(=O)c2ccc3c(c2)OCCO3)cc1
  84	-19	.	85
CCCN1C(=O)c2ccccc2NC1c1ccc(Br)cc1 (stereo unspecified)
  91	-12	100	85
Cn1c(=S)[nH]c2cc(C(=O)NC3CCCCCC3)ccc2c1=O
  94	-25	.	95
CC(C)NC(=S)N/N=C/c1ccco1
  85	-79	102	81
O=c1c2c(nc3cc(-c4ccco4)[nH]n13)CCCC2
  103	7	105	86
CCCSC1=N/C(=C/c2cccs2)C(=O)N1c1ccc(F)c(Cl)c1
  83	.	112	87
COc1ccc(/C=C(\C#N)S(=O)(=O)c2ccccc2)cc1CSCc1ccco1
  107	8	107	98
CCOc1ccc(S(=O)(=O)N(CC(=O)NCc2ccccc2OC)c2ccccc2)cc1
  95	-3	101	88
NC(=S)c1cccnc1
  93	-19	.	89
Cc1cccc(N2CCN(c3ccc4cc(S(=O)(=O)N5CCC(C)CC5)ccc4n3)CC2)c1C
  88	.	105	87
N=C1C(c2nc3ccccc3s2)=C(O)CN1c1ccc(S(N)(=O)=O)cc1
  116	-4&2	109&98	94
Cc1noc2c1C(c1cccc(Cl)c1)C1=C(CC(c3ccc(O)cc3)CC1=O)N2 (stereo unspecified)
  .	-23	102	.
O=C1Cc2cc(CCN3CCN(c4nsc5ccccc45)CC3)c(Cl)cc2N1
  .	-26&-20	107	.
COc1ccccc1NC(=O)c1c(C)nc(SCc2ccccc2)c(C#N)c1-c1ccc(C)o1
  114	8	.	94
Cc1nc(C(C)(C)C)[nH]c(=O)c1Cl
  69	-5	108	77
COCCCNC(=O)CSc1nc2cc3c(cc2c(=O)n1CCCCCC(=O)NCc1ccc(OC)cc1)OCO3
  97	.	107	96
COc1ccc2oc(=O)c(-c3nc(-c4cccs4)no3)cc2c1
  107	.	103	93
O=C(O)c1ccc(N=Cc2cn(-c3ccccc3)nc2-c2cccs2)cc1
  68	-4	.	82
COc1ccc(CNc2nc(NCc3ccc(OC)cc3)n(S(C)(=O)=O)n2)cc1
  116	-28	109	97
Cc1cccc(-n2c3nc(=O)[nH]c(=O)c-3cc3c(Cl)cccc32)c1C
  102	-192	110	102
COc1ccc(C(=O)N2CCc3cc(OC)c(OC)cc3C2COc2ccccc2OC)cc1 (stereo unspecified)
  81	.	109	91
Cc1ccc(C)c(NC(=O)c2cnn(-c3ccc(F)cc3F)c2C2CCNCC2)c1
  89	.	99	95
Cc1ccc2c(c1)c(-n1cccc1)c1n2CC(C)(C(=O)NC2CCCC2)N(Cc2cccnc2)C1=O (stereo unspecified)
  .	-23	100	.
Cc1ccc2nc(NC(=O)C(C)C)sc2c1
  117	-15	103	77
CC(C)c1ccc(NC(=O)CN(C)S(=O)(=O)c2ccc3c(c2)n(C)c(=O)c(=O)n3C)cc1
  98	-13	104	83
Cc1ccccc1N1C(=O)CC(SC2=NCCS2)C1=O (stereo unspecified)
  98	-19	99	82
N#C/C(=C\c1ccc(-c2ccc(C(=O)O)cc2)o1)C(=O)Nc1ccccc1C(=O)O
  106	-178	110	92
COc1ccc(CNC(=O)c2cc(-c3ccc(Br)s3)nc3ccccc23)cc1
  109	-22	107	89
O=C(CN(Cc1ccccc1F)C(=O)c1ccco1)NCc1ccc(F)cc1
  92	11	100	108
COc1cc(OC)c(NC(=O)CN2CCCN(Cc3ccccc3)S2(=O)=O)cc1Cl
  .	-22	98	.
CN(C)c1ccc(CNC(=O)c2cnc3sc(N4CCOCC4)nn3c2=O)cc1
  71	.	103	92
O=C(NCc1ccc2c(c1)OCO2)c1ccc2c(c1)N(Cc1cccc(Cl)c1)C(=O)c1ccccc1S2=O (stereo unspecified)
  101	.	102	86
Cc1ccc(C)c(CN2C(=O)c3ccccc3Sc3ccc(C(=O)NC4CCCC4)cc32)c1
  105	.	108	100
COc1ccccc1-c1c(C)nn2c(C(F)(F)F)cc(-c3ccccc3)nc12
  105	-23	108	93
CN1C(C(=O)Nc2ccccn2)=C(O)c2ccccc2S1(=O)=O
  100&99&106	-28&-27&-6&7&-6&-18&-48&-18&2	93&101&99	89&82&88
COc1ccc(C(Nc2cc(C)on2)c2c(C)[nH]c3ccccc23)cc1OC (stereo unspecified)
  82	-20	107	42
COc1ccc(C2C(C#N)=C(N)OC3NN=C(C)C32)cc1COc1cccc(Cl)c1 (stereo unspecified)
  76	-2	.	46
OC(CCN1CCOCC1)(c1ccc(Cl)cc1)C1CCCCC1 (stereo unspecified)
  91	.	108	62
O=C(CCSc1nc(-c2ccco2)cc(C(F)(F)F)n1)NCc1ccncc1
  96	.	101	97
C=CCn1c(=S)[nH]c2cc(OCC)c(OCC)cc2c1=O
  98	2	101	104

In the list so far, eight have a cyano group.
Every second line gives: Sa growth 42C	HCMV NEC inh	GIV Gai3 FP	Sa growth 42C second temp
Cc1cc(C)c2c(c1C#N)CC(C)(C)C2=O
  109	-11	105	97
COc1cc(Cn2c(N)c(C#N)c3nc4ccccc4nc32)cc(OC)c1OC
  113	-39	106	86
N#CCc1ccc(NC2(C#N)C3CC4CC(C3)CC2C4)cc1 (stereo unspecified)
  90	-8	99	90
CC(C)C(C)(C#N)NC(=O)c1cccnc1Oc1ccc(Cl)cc1 (stereo unspecified)
  97	-4	.	82
COc1ccc(/C=C(\C#N)S(=O)(=O)c2ccccc2)cc1CSCc1ccco1
  107	8	107	98
COc1ccccc1NC(=O)c1c(C)nc(SCc2ccccc2)c(C#N)c1-c1ccc(C)o1
  114	8	.	94
N#C/C(=C\c1ccc(-c2ccc(C(=O)O)cc2)o1)C(=O)Nc1ccccc1C(=O)O
  106	-178	110	92
COc1ccc(C2C(C#N)=C(N)OC3NN=C(C)C32)cc1COc1cccc(Cl)c1 (stereo unspecified)
  76	-2	.	46
